# PK Bst: modulators of Bacillus stearothermophilus pyruvate kinase; partly purified Bacillus stearothermophilus pyruvate kinase, luminescence ATP production; ribose 5-phosphate activator present at AC10; Potency, µM; hit rate 1.2% among 51,000; in the data active means potency below about 11 µM; inconclusive means mostly about 12 µM to 25 µM; inactive means weaker than that;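 the screen sought inhibitors and activators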;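 also: potency is read from the fitted curve at half-maximal effect; scaled between full activation by ribose 5 phosphate and full inhibition by luteolin; about four in five hits inhibit and the cells do not say which; series up to 57 µM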
# TsaE inh: inhibitors of E. coli YjeE (TsaE) | P0AF67 | purified YjeE, fluorescence polarisation of a bound ADP probe | Potency, µM | hit rate 0.05% among 71,000; active = well fitted falling curve; inconclusive = weaker or top-dose-only fall, or a rising curve; inactive = flat or poorly fitted curve;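 also: top concentration of the series not given in the record; excess ADP was the control for the full effect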
#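 Purified YjeE (10 uM) with BODIPY Texas Red-labeled ADP probe (2 uM); compounds pin-transferred, 15 min at room temperature. Binding inhibition read as decreased fluorescence polarization; ADP titration as control.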
# Starred values were filed as active, the others as inactive; i = inactive; u = inconclusive; x = no result given. Some of the compounds tested; count on the stated rates, not on these rows.
SMILES,PK Bst,TsaE inh
CC(NC(=O)CCC(=O)NC(C)C1COc2ccccc2O1)C1COc2ccccc2O1 (stereo not given),>57,i
COCCn1c(=O)cnc2cnc(Nc3cccc(OC)c3)nc21,x,i
CCCCC[C@H](O)C=C[C@H]1[C@H](O)CC(=O)[C@H]1CCCCCCC(=O)O,x,i
NC(=O)COc1c(-c2ccccc2)oc2ccccc2c1=O,u,i
Cc1cc(NC(=O)CCC(=O)N(c2ccc(F)cc2)C2(C(=O)NC3CCCCC3)CCCC2)no1,>57,i
O=C(Nc1cnn(Cc2ccc(F)cc2)c1)c1cc(-c2ccc(Br)cc2)on1,x,i
CC1CCCN(S(=O)(=O)c2ccc(C(=O)Nc3nnc(-c4ccccc4Cl)o3)cc2)C1 (stereo not given),>57,i
COC(=O)C1=C(N)Oc2cc(C)n(CCN3CCOCC3)c(=O)c2C1c1cccnc1 (stereo not given),>57,i
C=CCn1c(C)c(C(C)=O)c(SC)nc1=S,x,i
CC1(C)CC(=O)C(C2=NC(C)(C)Cc3ccccc32)=C(O)C1,>26,x
COc1cc2nc(COc3ccc(C#N)cc3)n(CC#N)c(=O)c2cc1OC,>57,i
CN(C)c1cccc(C(=O)NC2CCCCCC2)c1,>57,i

# 5 structures from above, ordered by SMILES length, lowest first:
SMILES,PK Bst,TsaE inh
COCCn1c(=O)cnc2cnc(Nc3cccc(OC)c3)nc21,x,i
O=C(Nc1cnn(Cc2ccc(F)cc2)c1)c1cc(-c2ccc(Br)cc2)on1,x,i
COC(=O)C1=C(N)Oc2cc(C)n(CCN3CCOCC3)c(=O)c2C1c1cccnc1 (stereo not given),>57,i
CCCCC[C@H](O)C=C[C@H]1[C@H](O)CC(=O)[C@H]1CCCCCCC(=O)O,x,i
CC1CCCN(S(=O)(=O)c2ccc(C(=O)Nc3nnc(-c4ccccc4Cl)o3)cc2)C1 (stereo not given),>57,i

# Going on with the list.
SMILES,PK Bst,TsaE inh
O=c1cc(CSc2nnc(-c3ccco3)o2)c2ccccc2[nH]1,>57,i
Cc1cc(NC(=O)C(C)C)ncc1NC(=O)CCc1ccccc1,>57,i
COc1cccc(-n2ccnc2SCC(=O)Nc2nccs2)c1,>57,i
CC(=O)N1CCC[C@@]2(CCN(Cc3ccccc3)C2)C1,x,i
Cc1ccc(-n2ncc3c(=O)[nH]c(SCC(=O)N4CCC(C)CC4)nc32)cc1C,x,i
Cn1cnc([N+](=O)[O-])c1SCC(=O)O,x,i
O=c1n(-c2ccccc2)c(=O)n2n1CCC2,>57,i
Cn1nnc2cc(NC(=O)N3CCN(c4ccccn4)CC3)ccc21,>57,i
COCCCNC(=O)c1ccc(N2CCCC2)c(NS(=O)(=O)c2ccc(C)cc2)c1,>57,i
O=C(O)CCC(=O)c1ccc2c(c1)OCCO2,x,i
CC(=O)Nc1sc2c(c1C(=O)N1CCOCC1)CCCCC2,>57,i
COc1cccc(-n2c(Cc3cc(=O)[nH]c(=O)[nH]3)nnc2SCC(=O)N2CCCC2)c1,>57,i
COCCn1c(=N)c(C(=O)NCc2ccco2)cc2c(=O)n3ccccc3nc21,>57,i
COC(=O)Nc1nnc(-c2ccccc2Cl)s1,x,i
COC(=O)C1=C(C)N(CC2CCCO2)C(=O)C1 (stereo not given),x,i
CCCC(c1nnnn1CC(=O)OCC)N(Cc1cc2ccc(C)cc2[nH]c1=O)C1CCCC1 (stereo not given),>57,i
C[N+](C)(C)CCN(Cc1cccs1)c1ccccn1,x,i
CCOC(=O)C(C)C1(O)c2ccccc2-c2ncccc21 (stereo not given),>57,i
CC(NC(=O)Cc1ccsc1)c1ccc(S(N)(=O)=O)cc1 (stereo not given),>57,i
Cc1c(Cl)cccc1N(CC(=O)N1CCCCCC1)S(C)(=O)=O,>57,i
C=CCC(=O)OCC(=O)Nc1ccc(Oc2ccccc2)cc1,>57,i
CN1CCN(C(=O)CSc2nc(-c3cccs3)ccc2C#N)CC1,i,x
COC(=O)c1cc(/C=C/c2ccccc2)on1,>57,i
O=C(NCC(c1cccnc1)N1CCN(c2ccccc2)CC1)C1CCCCC1 (stereo not given),>57,i
Cc1cc(C)nc(NC2=NCCN2C(=O)Nc2ccc(Cl)c(Cl)c2)n1,>57,i
CC(=O)C(C)Oc1ccc2c3c(c(=O)oc2c1)CCCCC3 (stereo not given),x,i
CN(c1ccccc1C(=O)Nc1ccc(S(=O)(=O)N2CCCCC2)cc1)S(C)(=O)=O,>57,i
N=c1n(CCO)c2ccccc2n1CCOc1ccc(Cl)cc1Cl,x,i
O=C(O)CC(c1ccc(Cl)cc1)n1cccc1 (stereo not given),>57,i
c1csc(CNc2ncncc2-c2ccoc2)c1,x,i
COc1ccc(CNc2ccnc(-c3ccc4c(c3)OCO4)n2)c(OC)c1,x,i
COC(=O)c1cn(NC(=O)c2cccnc2)c(=O)c2ccccc12,>57,i
CCC(C)NCC(O)COCc1ccc(Cl)cc1 (stereo not given),>57,i
CC1CCN(C(=O)Cn2cc(C(=O)c3ccco3)c3ccccc32)CC1,>57,i
CNS(=O)(=O)c1ccccc1C(=N)c1ccccc1,x,i
COc1ccc(CN2CCC(C(=O)N3CCN(c4ccccc4F)CC3)CC2)cc1OC,x,i

# Whole records from above:
# Entry for N=c1n(CCO)c2ccccc2n1CCOc1ccc(Cl)cc1Cl = PK Bst: x; TsaE inh: i
# Entry for COc1ccc(CNc2ccnc(-c3ccc4c(c3)OCO4)n2)c(OC)c1 = PK Bst: x; TsaE inh: i

# Later entries:
SMILES,PK Bst,TsaE inh
O=C(C1CCC(CNc2c(N3CCCCC3)c(=O)c2=O)CC1)N1CCN(c2ccccn2)CC1 (stereo not given),x,i
COc1ccc(OC)c(CCNC(=O)CC2Oc3ccc(C)cc3NC2=O)c1 (stereo not given),x,i
CCOc1ccccc1N(CC(=O)OC)S(=O)(=O)c1ccccc1,x,i
COc1ccccc1NC(=O)c1ccc(Cl)c(S(=O)(=O)N2CCOCC2)c1,x,i
O=C(NC1CCCCC1)c1cc2nc3c(c(C(F)(F)F)n2n1)CCCC3,>57,i
COc1ccc(NC(=O)Cn2c(C)cc(=O)c3cccc(OC)c32)cc1,>57,i
COC(=O)N1CCC2(CC1)CCN(c1ccccc1)CC2,x,i
O=C(NCc1ccccn1)c1n[nH]c2ccccc12,>57,i
O=C(O)CC(C(=O)O)n1nc(-c2ccccc2)cc1-c1ccccc1 (stereo not given),x,i
COc1cccc(Cn2c(=O)c(-c3cccs3)nc3cnc(N(C)C)nc32)c1,x,i
O=C(CN1C(=O)C2(OCCCO2)c2ccccc21)NCc1ccccc1,>57,i
COc1ccc(NCc2nnc(SCC(=O)c3ccc(OC)cc3)n2C)cc1,>57,i
Cc1ccc(Nc2nc(N)nc(CC#N)n2)cc1,i,i
COc1cc(C2C(C#N)=C(N)Oc3cc(N)ccc32)cc(OC)c1OC (stereo not given),>26,x
COc1ccc(CCNC(=O)CSCc2n[nH]c(=O)[nH]2)cc1OC,>57,i
CN1CCN(C(=O)c2cn(C)c3ccc(S(=O)(=O)N(C)C4CCCCC4)cc3c2=O)CC1,x,i
CCOc1nc(-c2ccccc2)ccc1-c1noc(-c2ccncc2)n1,>57,i
Cc1cc(=O)[nH]c(Nc2ccc(C(=O)OC(C)C)cc2)n1,>57,i
CC(=O)Nc1ccc(NC(=O)c2ccccc2F)cc1,x,i
C=CCn1c(SCc2ccccc2)nnc1-c1cccnc1,>57,i
Cc1ccc(C)c(NS(=O)(=O)c2ccc(NC(=O)c3ccco3)cc2)c1,i,i
Cc1cc(C)nc(NC2=NCC(=O)N2c2cccc(Cl)c2)n1,>11,x
COC(=O)c1cc(OC)c(OC)cc1NC(=O)Cn1nnc(-c2ccccc2Cl)n1,>57,i
Cc1nc2ccccc2c(=O)n1NC(=O)c1ccccc1Cl,>57,i
O=C(CC1SCCNC1=O)Nc1cccc(Cl)c1 (stereo not given),>57,i
NC(=O)c1cc(S(=O)(=O)NC2CCCCC2)co1,>57,i
O=C(OCC#CCSc1nnc(-c2cccc3ccccc23)o1)c1cccs1,>57,i
Cc1ccc(CCNC(=O)C2CCCN(S(=O)(=O)c3c(C)nn(C)c3C)C2)cc1 (stereo not given),x,i
COCCn1c(=O)c(-c2ccc(OC)cc2)nc2cnc(Oc3ccc(OC)cc3)nc21,x,i
O=C(CC(c1ccccc1)c1ccccc1O)NCCN1CCOCC1 (stereo not given),>57,i
O=C(c1ccc(N2CCNCC2)cc1)c1cccnc1,>57,i
Cc1ccc(C)c(NS(=O)(=O)c2cc(Br)cnc2N)c1,>57,i
O=C(Nc1ccccc1)N1CCSCC1,>57,i
COc1cc(OC)c(Cl)cc1N,x,i
CCOC(=O)c1c(C)n(C)c2ccc(OCC(O)CN3CCC(C)CC3)cc12 (stereo not given),x,i
Cc1ccc(CNC(=O)c2cn(C3CCCC3)c(=O)c3c2c2ccccc2n3C)o1,u,i
Cc1occc1C(=O)Nc1ccc2c(c1)OCO2,>11,i
Clc1ccccc1-c1nc(NCCN2CCOCC2)c2ccccc2n1,x,i
Cc1cc(C)nc(Nc2ncc(O)n2-c2ccc(C)c(Cl)c2)n1,>57,i
O[C@@](CCN1CCCC1)(c1ccccc1)C1CCCCC1,x,i
C=CCn1c(CCCNC(=O)C(C)(C)C)nc2ccccc21,x,i
O=C(c1ccccc1)N1CCN(Cc2c[nH]c3ccccc23)CC1,>57,i
S=c1[nH]nc(-c2cccnc2)o1,>57,i
COCCNC(=O)C1CCC(Cn2c(=S)[nH]c3ccccc3c2=O)CC1 (stereo not given),>57,i
CC(=O)c1cccc(NC(=O)N2CCCC2C(=O)Nc2c(C)cccc2C)c1 (stereo not given),>57,i
O=C(OCC(=O)N1CCN(c2ccccc2)CC1)c1ccccn1,>57,i
O=C(O)Cc1nc2nc3c(c(=O)n2[nH]1)CCCC3,>57,i
N#Cc1nc(Cc2cccc3ccccc23)oc1N1CCCCC1,>57,i
COc1ccc(N(CC(=O)NC2CCCC2)C(=O)Cn2nnc(-c3ccc(F)cc3)n2)cc1OC,>57,i
COc1ccc(S(=O)(=O)Cc2ccc(C(=O)NC3CCCC3)o2)cc1,x,i
O=C(O)C1CSCN1S(=O)(=O)c1cccc2nsnc12 (stereo not given),>26,x
O=C(O)/C=C1\NC(=O)c2ccccc21,x,i
O=c1[nH]c(N2CCc3ccccc3C2)nc2c1CCC2,>57,i
Cn1c(-c2ccc(F)cc2)cnc1NCc1ccc(C#N)cc1,>57,i
CC(NO)C(C)(C)NO (stereo not given),>57,i
COc1cccc(C(=O)Nc2cc(C)c3c(=O)oc4ccccc4c3n2)c1,x,i
Cc1cc(Nc2ccc(F)cc2C)n2nc(C)nc2n1,x,i
COc1ccccc1NS(=O)(=O)c1ccc(OC)c(OC)c1,>57,i
COc1ccccc1N1CCN(C/C=C/c2ccc(N(C)C)cc2)CC1,x,i
C=CCn1c(=O)c2ccccc2n2c(Sc3nnnn3-c3ccccc3)nnc12,>57,i

# Compounds listed so far with bromine:
SMILES,PK Bst,TsaE inh
O=C(Nc1cnn(Cc2ccc(F)cc2)c1)c1cc(-c2ccc(Br)cc2)on1,x,i
Cc1ccc(C)c(NS(=O)(=O)c2cc(Br)cnc2N)c1,>57,i

# Additional records.
SMILES,PK Bst,TsaE inh
CCCCSCc1nc2nc(Cl)c(Cl)nc2[nH]1,x,i
CC(=O)COc1ccc2c3c(c(=O)oc2c1)CCCC3,x,i
Cc1ccccc1NC(=O)c1ccc(F)c(S(=O)(=O)N2CCN(c3ccccn3)CC2)c1,>57,i
C[C@H](CCC(=O)O)[C@H]1CC[C@H]2[C@@H]3C(=O)C[C@@H]4CC(=O)CC[C@]4(C)[C@H]3CC(=O)[C@]12C,>26,x
O=C(NCCN1CCOCC1)C1CCN(c2nc3ccccc3o2)CC1,>57,i
COCCOC(=O)C1=C(C)NC(=O)NC1c1ccc(Cl)cc1 (stereo not given),x,i
Cn1c(=O)cc(SCC(=O)N2CCCC2)c2ccc(Cl)cc21,x,i
O=C(O)C1CCN(S(=O)(=O)N2CCOCC2)CC1,>57,i
Cc1noc(C)c1C(=O)N1CCC[C@@]2(CCN(C(=O)Nc3cccc(F)c3)C2)C1,x,i
COC(=O)c1ccc2[nH]c(C)cc(=O)c2c1,>57,i
COc1ccc2c(Cl)c(C(=O)NC3CCS(=O)(=O)C3)sc2c1 (stereo not given),>57,i
COC(=O)c1ccccc1NC(=O)c1ccc(-c2ccccc2F)o1,>57,i
Cc1cc(C)cc(OCC(=O)N(Cc2cccs2)C2CCS(=O)(=O)C2)c1 (stereo not given),>57,i
COc1cccc(NC(=O)CNC(C)CCC(C)C)c1 (stereo not given),>57,i
CCOC(=O)c1ccc2c(c1)nc(C1CCN(S(=O)(=O)c3cccs3)CC1)n2CC,>57,i
O=C(c1cccc(S(=O)(=O)N2CCOCC2)c1)N1CCCCCC1,>57,i
Cn1nnnc1SCC(=O)N1CCN(c2ccc(Cl)cc2)CC1,>57,i
Cc1ccc(C)n1-c1ccc2c(c1)COC2=O,>57,i
CCOC(=O)c1c(C)[nH]c(C(=O)CN2C(=O)NC(CC)(c3ccccc3)C2=O)c1C (stereo not given),>57,i
N#CC1(c2ccccc2)CCC(=NO)CC1 (stereo not given),>26,x
COc1cccc(C2=NOC(C(=O)N3CCOCC3)C2)c1 (stereo not given),>57,i
COc1ccc(OC)c(N2C(=O)[C@@H]3C(c4ccccc4Cl)=NO[C@@H]3C2=O)c1,>57,i

# Retrieved by structure from above, 3 records:
SMILES,PK Bst,TsaE inh
Cc1cc(C)cc(OCC(=O)N(Cc2cccs2)C2CCS(=O)(=O)C2)c1 (stereo not given),>57,i
CCOC(=O)c1c(C)[nH]c(C(=O)CN2C(=O)NC(CC)(c3ccccc3)C2=O)c1C (stereo not given),>57,i
COc1cccc(C2=NOC(C(=O)N3CCOCC3)C2)c1 (stereo not given),>57,i

# Bioassay records (PubChem)
